# Sfp PPTase inh: blocks B. subtilis Sfp PPTase activity; Q9F4F7; Biochemical Sfp PPTase activity, qHTS; Potency, µM, inactives show max response, negative = inhibition, usual class: inhibitors; 310,000 compounds, 3.5% hits; AID 1490; active = well fitted inhibition curve with a large enough effect; inconclusive = small, poorly fitted or top-dose-only effect, or another doubt; inactive = no such curve, though single readings can be large or run the other way;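 note: the enzyme is Sfp with the accession as filed and its product quenches rhodamine fluorescence; potency is the fitted concentration of half-maximal effect; 0% = enzyme reaction without inhibitor and -100% = no enzyme wells; top concentration of the series not given in the record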
#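 Sfp 15 nM + cpd, 15 min RT; start w/ rhodamine-CoA 5 uM, BHQ-2-YbbR 12.5 uM (final); 50 mM Hepes pH 7.6, 10 mM MgCl2, 0.01% NP-40, 0.01% BSA; read 525/598 nm at 0 and 30 min.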
# Menin MLL FP FL: menin-MLL binding inhibition, fluorescein peptide; Fluorescence polarization, fluorescein-MLL peptide displacement from menin; FP activity change, % at 61.4 µM; 290,000 tested, under 10 active; AID 1766; inconclusive = falling polarisation curve, or a change in total fluorescence; inactive = total fluorescence flat and polarisation flat or rising; no compound was filed as active; the % refers to the polarisation; negative = inhibition;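 note: % of control where 0% means no effect; inhibitors lower the polarisation; unlabelled MLL peptide was the positive control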
# gsp ag: activates gsp, the McCune-Albright syndrome mutation. gsp mutant cells, cAMP HTRF, 30 min; control for the full effect not named in the record. Potency, µM (top dose mostly 76.9 µM), for the others: at the top dose activation (cAMP increase), most hits filed as activators. 340,000 compounds, 0.13% hits; active = well fitted activation curve with a large enough effect; inconclusive = small, poorly fitted or top-dose-only effect, or another doubt; inactive = no such curve, though single readings can be large or run the other way; cell line not stated here;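 note: phosphodiesterase inhibitor Ro 20-1724 added with compounds to block cAMP breakdown; potency is the fitted concentration of half-maximal effect; nearly all actives have a fitted effect of over 60% in size; about a fifth of the inactives were tested at one dose only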
#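 Cells stably selected in G418 were plated at 2000/well, grown 16-24 hr, then given compounds in DMSO with the PDE inhibitor […] (300 uM solution added) for 30 min at 37C; cAMP was read by HTRF.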
# gsp antag: antagonists of gsp mutant (McCune-Albright syndrome); gsp-mutant cells, cAMP HTRF, 30 min; control for the full effect not named in the record; Potency, µM (doses to about 76.9 µM), for the others: at the top dose activity change, negative = inhibition, actives largely listed as inhibitors; 340,000 compounds, 0.4% hits; AID 624288; active = falling curve of any shape with a large fitted effect; inconclusive = falling curve, mostly with a smaller effect; inactive = flat or rising curve; cell line not stated here;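 note: intracellular cAMP measured with PDE inhibitor Ro 20-1724 present during compound exposure; potency is the fitted concentration of half-maximal effect; % is set by controls: 0 for no effect and ±100 for the full control effect; nearly all actives have a fitted effect of over 65% in size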
#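 HTRF cAMP read-out (cAMP-d2 plus anti-cAMP antibody-K in lysis buffer, 30 min RT). Before lysis, cells are exposed to compounds with […] for 30 min at 37C in DPBS containing Ca/Mg, BSA and Tween 20.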
# D2 agonist: human D2 receptor agonism in beta-arrestin assay; P14416; DiscoveRx PathHunter D2 beta-arrestin, luminescence, 90 min; 100% = 57 uM dopamine signal; 360,000 compounds, 0.084% hits; activation, % (concentration not given with the values); AID 624465; in the data active = activation above about 40%; inconclusive = about 15% to 40%; inactive = below about 15%; note: the text of the record calls up to 30% inactive
# Target sequence (P14416 whole entry, looked up): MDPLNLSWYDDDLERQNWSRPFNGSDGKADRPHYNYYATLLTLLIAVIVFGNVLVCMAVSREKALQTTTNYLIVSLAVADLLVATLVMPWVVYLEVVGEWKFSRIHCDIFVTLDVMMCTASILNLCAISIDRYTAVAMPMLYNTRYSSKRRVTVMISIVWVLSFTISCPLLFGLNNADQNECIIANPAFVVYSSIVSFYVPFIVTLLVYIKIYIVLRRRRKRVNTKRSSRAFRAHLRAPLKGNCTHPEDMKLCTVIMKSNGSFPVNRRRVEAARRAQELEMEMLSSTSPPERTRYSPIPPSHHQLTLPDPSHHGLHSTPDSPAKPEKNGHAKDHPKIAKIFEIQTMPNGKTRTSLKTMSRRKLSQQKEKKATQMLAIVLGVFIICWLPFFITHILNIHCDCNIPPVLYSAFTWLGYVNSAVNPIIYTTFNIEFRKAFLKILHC
#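 Agonist mode: compounds alone added to overnight-plated D2 PathHunter cells for 90 min at 37 C, with 57 uM final dopamine (EC100) defining full response. Beta-arrestin recruitment detected by chemiluminescent reagent, read after 1 h at ambient temperature.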
# PINK1 modulator: modulators of PINK1 expression; PINK1 immunofluorescence, high-content cytometry, 24 h; 410,000 compounds, 0.2% hits; AID 624263; Potency, µM (top dose mostly 76.6 µM), without a hit: at the top dose activation (PINK1 increase), usual class: activators; active = well fitted activation curve with a large enough effect; inconclusive = small, poorly fitted or top-dose-only effect; inactive = flat fitted curve, though single readings scatter; cell line not stated here;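 note: potency is the fitted concentration of half-maximal effect; % of control where 0% means no effect; nearly all actives have a fitted effect of over 65% in size; a mitochondrial uncoupler was the plate control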
#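 PINK1 protein, normally rapidly degraded, was detected by immunofluorescence after 24 hour compound treatment of a stable cell line. Titration data (5 concentrations) came from laser-scanning cytometry, with CCCP-treated wells as controls.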
# ClpP mod: qHTS Assay for Activators of ClpP. Potency, µM (doses to about 57.5 µM), for inactives: at the highest dose activity change, negative = active. ATP-dependent Clp protease proteolytic subunit (Bacillus subtilis (strain 168)), P80244. 340,000 compounds, 1.9% hits. purified B. subtilis ClpP, FRET peptide cleavage, 20 min. AID 651965, 2013; active = well fitted falling curve with a large enough effect; inconclusive = small, poorly fitted or top-dose-only effect; inactive = no such curve, though single readings can be large or run the other way; note: potency is the fitted concentration of half-maximal effect; the source files actives as falling curves though it sought activators and does not explain the sign; nearly all actives have a fitted effect of over 65% in size; many hits overshoot -100%
# Target sequence (P80244 whole entry, looked up): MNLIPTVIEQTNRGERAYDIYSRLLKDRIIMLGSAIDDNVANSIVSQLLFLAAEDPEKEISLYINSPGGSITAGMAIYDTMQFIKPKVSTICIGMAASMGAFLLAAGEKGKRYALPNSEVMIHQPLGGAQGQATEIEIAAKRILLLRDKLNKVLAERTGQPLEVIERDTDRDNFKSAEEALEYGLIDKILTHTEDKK
#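 Buffer: 100 mM Tris/HCl pH8, 100 mM KCl, 0.05% low protease BSA, 2.5% glycerol, 0.01% Tween-20. ClpP 10 microg/mL final; 20 min RT; delta FRET normalized to ADEP and DMSO controls.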
# Numbers without * were called inactive; ? = inconclusive; · = no result given; [ ] = another dose, or the depositor's remark. An unsorted share of the library, and some 5.1% of all compounds hit somewhere here.
SMILES	Sfp PPTase inh	Menin MLL FP FL	gsp ag	gsp antag	D2 agonist	PINK1 modulator	ClpP mod
Cc1cccc(N2C(=O)CN(Cc3cccs3)C2=S)c1	19%	5.5	-1%[15.4 µM]	-1%	3.5	2.1%	1.0%
CSc1ccccc1NC(=O)CN(C)C(C)C(=O)NC(=O)NC1CCCCC1 (configuration not stated)	·	·	-23%[15.4 µM]	-15%	-2.7	1.6%	·
c1ccc(Nc2cc(-c3ccccc3)nc3ncnn23)cc1	8%	-0.5	8%	8%	-0.2	-5.3%[38.3 µM]	-2.0%
CC(OC(=O)CCc1nc2ccccc2c(=O)[nH]1)C(=O)c1ccc(Br)cc1 (configuration not stated)	-6%	1.9	-1%	-7%	-1.4	-4.8%	-3.4%
CCCOc1cc(C)c(S(=O)(=O)NCc2cccs2)cc1C	·	·	-19%	-4%	0.5	5.6%	0.9%
CC(C)OC(=O)c1cc(C(=O)c2cc(Br)ccc2O)coc1=N	-11%	11	-11%[15.4 µM]	-5%	2.7	0.0%	-1.6%
CCCCn1c(N)c(N(CCOC)C(=O)c2c(C)noc2C)c(=O)[nH]c1=O	·	·	5%[15.4 µM]	19%	-1.6	0.3%	-1.1%
c1nc2ccc(Cc3ccc4nc[nH]c4c3)cc2[nH]1	24%	-1.5	-4%	2%	-1.9	5.0%	-7.0%
Cc1ccccc1NC(=O)NNC(=O)COc1ccc2ccccc2c1	-2%	-3.6	-29%	-4%	-7.1	1.3%	-1.6%
Cc1ccccc1C(=O)Nc1ccccc1C(=O)NCc1ccccc1	1%	2.0	7%	-23%	-0.6	0.7%	1.2%
COc1ccc(OC)c(C=NN=Cc2cc(OC)ccc2OC)c1	·	·	10%	·	-5.3	3.9%	-3.0%
O=C1/C(=C/c2cccs2)SC(=S)N1c1cccc(O)c1	3%	5.5	?	-27%	-3.4	5.8%	·
Cn1c(=O)c2c(nc(N/N=C/c3ccc(OC(=O)c4ccco4)cc3)n2Cc2ccc(F)cc2)n(C)c1=O	?	1.4	7%[15.4 µM]	8%	-2.0	-2.0%	-2.1%
Cc1nc(N2CCN(Cc3ccccc3)CC2)c(C#N)c2c1COC(C)(C)C2	-15%	-3.8	-9%	-7%	-1.7	3.9%	-13%
O=[N+]([O-])c1cc2c(cc1Br)CCN2	-12%	-2.4	-5%	-7%	2.5	1.0%	·
COc1ccc2[nH]cc(CCNc3cc(-c4ccccc4C(F)(F)F)ncn3)c2c1	79µM*	-3.1	·	·	·	-0.5%	·
CCOC(=O)N1CCC(NC(=O)c2cc(C(=O)Nc3ccc(S(=O)(=O)N4CCCCC4)cc3)ccc2CO)CC1	18%	-0.3	-30%	2%	3.9	8.9%	3.2%
CCCOc1ccc(-c2c(=O)n(O)c3ccccc3[n+]2[O-])cc1	-21%	0.9	-39%[inhibitor]	-24%	-2.7	1.5%	·
O=C(CSc1nnc2ccc(-c3ccccn3)nn12)Nc1ccccc1	·	·	-49%[inhibitor]	-13%	5.1	1.6%	36%
O=C(NCc1ccccn1)c1ccc(CNS(=O)(=O)c2cccc(C(F)(F)F)c2)cc1	10%	-1.7	3%[15.4 µM]	0%	-0.5	0.7%	·
O=C(NC1CCCCC1)C1CCCN1S(=O)(=O)c1ccc(F)cc1 (configuration not stated)	9%	-3.0	11%[15.4 µM]	9%	-7.3	-0.5%	·
CC[n+]1c(/C=C/Nc2ccccc2)oc2ccc(OC)cc21	5%	?	0%[15.4 µM]	17%	-2.5	2.0%	·
CCOC(=O)c1c(NC(=O)c2cccc(N3C(=O)CCC3=O)c2)sc(C)c1C	-23%	6.4	2%	1%	-2.9	5.5%[38.3 µM]	-9.5%
CCN(CC)C(=O)c1cc2c(=O)n3cccc(C)c3nc2s1	14%	1.2	4%[15.4 µM]	15%	4.4	0.2%	0.8%
O=C(N/N=C/c1ccccn1)c1cc(-c2cccc3ccccc23)n[nH]1	10%	5.1	-77%[inhibitor]	-12%	-0.8	2.5%	-2.3%
COc1ccc(N2CCN(C(=O)c3cccc(NC4=NC5CS(=O)(=O)CC5S4)c3)CC2)cc1 (configuration not stated)	2%	·	8%	14%	1.9	-1.1%	-0.6%
CCC(CC)c1nnc(NC(=O)CS(=O)(=O)c2ccc(C)cc2)s1	28µM*	-1.3	0%	-7%	-4.3	-0.3%	·
Cc1nc2sc(C(c3ccccc3)N3CCOCC3)c(O)n2n1 (configuration not stated)	12%	-2.1	-31%[inhibitor]	4%	-1.5	-3.7%[38.3 µM]	0.5%
Cc1ccc(S(=O)(=O)N(C)C)cc1NC(=O)COC(=O)COc1ccc2c(C)cc(=O)oc2c1	·	·	1%	-5%	0.1	-0.2%	88%
O=c1c(-c2cccc(Cl)c2)c[nH]n1-c1ccccc1	5%	-1.7	-8%[15.4 µM]	?	-2.0	0.1%	2.9%
O=C(NC(=S)N1CCN(CCO)CC1)C12CC3CC(CC(C3)C1)C2	2%	3.6	?	1%	-1.9	0.9%	·
O=C1/C(=C\c2ccco2)SC(=S)N1Cc1ccccc1	?	?	6%	-10%	2.0	2.7%	-1.4%
O=C(Nc1cccc(C(=O)N2CCCCC2)c1)c1ccccc1	·	·	·	8%	1.3	-0.5%	0.9%
Cc1csc(SCC(=O)NCc2ccccc2Cl)n1	6%	1.8	-5%[15.4 µM]	5%	-6.9	1.9%	?
Cc1c(C)n2c(SCC(=O)N3CCCCC3)nnc2[nH]c1=O	·	·	-19%[15.4 µM]	11%	1.6	0.6%	·
C[C@H](NC(=O)c1nc[nH]c1C(=O)N[C@@H](C)C(=O)OC(C)(C)C)C(=O)OCc1ccccc1	14%	-0.4	29%	-8%	-2.8	0.6%	0.8%
CCN1CCN(C(=S)c2ccc(OCC(=O)NCc3ccccc3)cc2)CC1	22µM*	-2.1	-34%[inhibitor]	-1%	-3.3	-0.4%	·
COc1cc(NC(=O)c2cccnc2)c(Cl)cc1NC(=O)c1ccc(Cl)cc1	-8%	-2.8	?	8%	-1.9	?	-2.1%
CC(C)NC(=S)N/N=C/c1ccc2c(c1)OCCO2	-1%	-1.0	-6%	17%	1.9	4.5%	-3.1%
CC(c1nnc(SCC(=O)Nc2sccc2C#N)n1-c1ccc(Cl)cc1)N(C)C (configuration not stated)	19%	3.4	-22%	-9%	0.1	0.2%[38.3 µM]	-1.8%
Cc1ccc(N2C(=O)C3C(C2=O)C2C=CC3C23CC3)cc1 (configuration not stated)	8%	-1.3	-25%	6%	-2.3	0.3%	1.7%
COc1ccc(Cc2nnc(SCC(=O)Nc3c(C)cccc3C)[nH]c2=O)cc1	·	·	5%	2%	0.2	4.6%	-2.4%
Cc1cc(N)n2ncc(-c3ccccc3)c2n1	9%	2.7	14%	-17%	-3.6	-1.1%	-12%
Cc1cccc(C(=O)Nc2nnc(C3=COCCO3)o2)c1	-4%	-4.2	11%[15.4 µM]	-3%	0.2	-0.1%	·
Cc1cc(/C=N/NC(=O)c2ccc(O)cc2)c(C)n1CC(C)C	6%	0.3	-3%	5%	-7.3	1.9%	-8.9%
O=C(CN1C(=O)NC(Cc2ccccc2)C1=O)Nc1ccc(OC(F)(F)F)cc1 (configuration not stated)	·	·	?	-1%	-3.8	3.0%	1.1%
Cc1ccc2nc(Cl)c(C3CC(c4ccco4)=NN3S(C)(=O)=O)cc2c1 (configuration not stated)	-27%	0.9	-1%[15.4 µM]	1%	1.4	-0.6%	·
CN(Cc1ccccc1)C(=O)c1ccc(NC(=O)Cc2ccc(NC(=O)C3CCCN(S(=O)(=O)c4cccc([N+](=O)[O-])c4)C3)cc2)cc1 (configuration not stated)	·	·	·	-1%	5.2	0.9%	0.1%
CS(=O)(=O)c1ccc(Cl)c(NC(=O)COC(=O)Cc2c[nH]c3ccccc23)c1	·	·	-8%[15.4 µM]	-6%	-0.5	0.4%	·
CC(C)C(=O)N1CCN(c2ccccc2NC(=S)NC(=O)c2cccs2)CC1	2%	0.5	-8%	?	-2.3	2.7%	·
COc1ccc(C(=O)N/C(=C\c2cccs2)c2nc3ccccc3[nH]2)cc1OC	-6%	0.0	-14%	-15%	-3.0	-4.7%[38.3 µM]	-19%
CCN(CC)S(=O)(=O)c1ccc(Cl)c(C(=O)NCc2ccco2)c1	10%	-2.6	-3%	5%	4.5	0.4%	-1.1%
CCCCOc1cccc(C(=O)Nc2ccc(S(=O)(=O)Nc3nnc(CC)s3)cc2)c1	21%	-2.0	-1%	-15%	1.4	0.0%	-0.8%
O=C(Nc1ccc(Cl)cc1)N1CCSCC1	3%	-1.0	?	10%	-3.1	1.1%	-2.4%
CCN(CC(=O)Nc1cc(Cl)ccc1C)C(=O)COc1cccc2c1OC(C)(C)C2	6%	10.0	-25%	-9%	-2.8	2.4%	0.8%
Cc1ccc(NC(=S)N(CCN2CCOCC2)Cc2cc3cc4c(cc3[nH]c2=O)OCO4)cc1	9%	-0.4	?	4%	-1.4	-0.3%	3.5%
C/C(=N\Nc1nncc2ccccc12)c1ccc(O)cc1	5%	-2.0	16%[15.4 µM]	-1%	-5.6	1.9%	·
Cc1cc(C)c2c(c1)/C(=N\N=c1\sc3ccccc3n1C)C(=O)N2	9%	1.2	-18%[15.4 µM]	-14%	-1.6	8.4%	·
COc1ccc(-c2nc(C#N)c(NCCc3ccccc3)o2)cc1	-2%	-1.7	23%	-14%	-1.4	·	32µM*

# From PubChem
